# From PubChem
# Polio RdRp inh: inhibitors of poliovirus RNA polymerase binding and polymerization. P03300. poliovirus polymerase elongation, fluorescence polarization; active compounds read low. % elongation, % (compound at 16.7 µg/mL). 0.66% of 150,000 active. AID 588519; in the data active = % elongation below about 90%; note: some results filed as inactive read as strong as hits
# Mtb MbtI inh: blocks the Mycobacterium tuberculosis siderophore enzyme MbtI. purified MbtI enzyme, fluorescence intensity read-out. P9WFX0. inhibition, %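 (about 17 µg/mL by stock and volumes)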. 0.89% of 100,000 active. AID 493033;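 active = above 50% in both replicates, above 80% if mildly self-fluorescent; inactive = the rest, strongly fluorescent compounds included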;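 note: 0% = mean of negative and 100% = mean of positive controls; one replicate is shown; some compounds called inactive have numbers as strong as hits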
# Target sequence (P9WFX0 whole entry, looked up): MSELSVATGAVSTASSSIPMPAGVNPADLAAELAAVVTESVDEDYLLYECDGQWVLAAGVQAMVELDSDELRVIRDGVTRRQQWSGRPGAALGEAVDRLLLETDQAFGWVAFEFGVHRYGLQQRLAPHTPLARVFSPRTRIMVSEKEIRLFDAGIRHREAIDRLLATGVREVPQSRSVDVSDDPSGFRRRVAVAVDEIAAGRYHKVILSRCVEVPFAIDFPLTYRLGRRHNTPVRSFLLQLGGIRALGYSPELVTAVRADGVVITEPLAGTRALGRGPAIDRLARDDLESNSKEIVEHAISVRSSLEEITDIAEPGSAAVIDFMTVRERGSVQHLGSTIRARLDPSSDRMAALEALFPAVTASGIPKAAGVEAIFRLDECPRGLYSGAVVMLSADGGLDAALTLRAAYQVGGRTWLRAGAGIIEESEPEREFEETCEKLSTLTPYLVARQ
# Mtb MenB inh: blocks the Mycobacterium tuberculosis MenB enzyme. P9WNP5. MenB enzyme assay, absorbance read-out; some hits fall short of the stated cut. inhibition, %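 (about 12 µg/mL by stock and volumes)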. 0.43% of 100,000 active;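 active = mean of two replicates above 30%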;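 note: 0% = no compound and 100% = wells with inactive enzyme; the first replicate is given; strong numbers were not always called active; inactives centre near -10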
# Target sequence (P9WNP5 whole entry, looked up): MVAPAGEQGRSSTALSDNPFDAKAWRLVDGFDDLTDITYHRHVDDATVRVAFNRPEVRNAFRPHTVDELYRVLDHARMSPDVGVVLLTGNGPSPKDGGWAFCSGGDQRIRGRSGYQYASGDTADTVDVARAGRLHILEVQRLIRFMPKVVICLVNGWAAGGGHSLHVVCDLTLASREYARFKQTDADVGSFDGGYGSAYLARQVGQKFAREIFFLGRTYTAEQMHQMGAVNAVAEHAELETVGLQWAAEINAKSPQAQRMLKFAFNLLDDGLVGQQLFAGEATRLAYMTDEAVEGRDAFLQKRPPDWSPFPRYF
# Polio RdRp inh intensity: recorded beside Polio RdRp inh, whose call it bears; % elongation; measured here: total intensity read-out; formula for this scale not given here;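 total fluorescence in place of polarization; lower means less elongation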
# * hit, by the source's call; . = no result given.
SMILES,Polio RdRp inh,Polio RdRp inh intensity,Mtb MbtI inh,Mtb MenB inh
COCCN(C(=O)c1ccco1)c1nnc(-c2ccc(F)cc2)s1,102,103,28,10
Cc1cc(Nc2ccccc2)nc(Nc2ccccc2)n1,101,104,.,-8
Cn1c(NC(=O)c2ccccc2NC(=O)c2ccccc2)nc2ccccc21,102,97,2,-6
CC(C)(C)OC(=O)N1CCC(CNS(=O)(=O)c2cccc(C(F)(F)F)c2)CC1,103,107,-7,-17
N/C(=N/O)c1ccccc1N,102,104,26,42*
Cc1cc(C)nc(NC(N)=NC(C)c2ccccc2)n1 (stereo not given),101,102,-35,3
CCCCN(C)C(=O)C1CCCN(c2nnc(C)c3c(C)n(-c4ccccc4)nc23)C1 (stereo not given),.,.,-30,2
O=C1NC2(CCCc3sccc32)C(=O)N1CCN1C(=O)c2ccccc2C1=O (stereo not given),105,101,-8,-22
COc1ccc(CC(=O)OCC(=O)NC2CC2)cc1,106,97,-10,-13
C=CS(=O)(=O)c1ccc(OC)c(N)c1,95,102,.,-11
Cn1c(C(=O)O)ccc1S(=O)(=O)N1CCN(c2ccc(C(F)(F)F)cn2)CC1,105,96,-6,13
CCOc1ccc(Cc2nc(C)c(CC(=O)N3CCOCC3)c(=O)[nH]2)cc1,102,98,-22,-13
COc1ccc(C(=O)OCC(=O)NC23CC4CC(CC(C4)C2)C3)cc1S(=O)(=O)N1CCOCC1,98,99,4,-4
COCCn1c(SCC(=O)N2c3ccccc3CC2C)nc2ccccc2c1=O (stereo not given),.,.,-3,-3
CC1CCN(CCCNC(=O)CCn2nc(-c3ccccc3)ccc2=O)CC1,100,101,46,0
CCOC(=O)c1cnc2c(-c3ccccc3)cnn2c1C,100,103,4,-15
COc1ccc(N2CCN(C(=O)c3ccccc3OC)CC2)cc1,104,103,-6,-16
N#Cc1ccccc1Sc1ccccc1C(=O)OCC(=O)NC1CC1,102,98,-10,-13
N/C(COc1cc(Cl)cc(Cl)c1)=N\O,100,99,71,26
CC(C)NCC(O)COc1ccc(CCOCC2CC2)cc1 (stereo not given),102,99,-8,7
Cc1ccc(Oc2coc3cc(OCC(=O)N4CCCCC4)ccc3c2=O)cc1,100,100,-13,-24
CN1CCC(OC(=O)c2ccc(Cl)cc2Cl)CC1,100,104,-1,10
COc1ccc(C(=O)Nc2ccc(CN3CCCCC3)cc2)cc1,103,104,-6,-21
O=C(Cc1c(Cl)cccc1Cl)OCC(=O)c1cc2ccccc2o1,105,109,-78,.
O=C(CCn1c(=O)oc2ccccc21)N(Cc1ccccc1)c1ccccc1,100,105,8,-10
# Further compounds:
SMILES,Polio RdRp inh,Polio RdRp inh intensity,Mtb MbtI inh,Mtb MenB inh
OC(CNC1Cc2ccccc2C1)COc1ccc(F)cc1 (stereo not given),103,102,-7,-13
Cc1cc(Cl)c(O)c(-n2nc3ccccc3n2)c1,105,109,-9,.
CC(=O)OCC(=O)c1ccc(NC(=O)c2ccccc2)cc1,103,98,16,-23
Nn1c(COc2cccc(Br)c2)nnc1SCC(=O)N(C1CCCC1)C1CCS(=O)(=O)C1 (stereo not given),97,105,3,-14
CN(C)CC1CCCCC1OC(=O)c1ccc(Cl)cc1 (stereo not given),103,106,-6,.
O=c1c2c([nH]c(=S)n1-c1ccc(F)cc1)CCS2,101,101,13,7
CC(C)(C)Sc1ccc(SC#N)s1,95,84,81*,-32
CC(C)n1nc(C(=O)Nc2ccccc2N2CCOCC2)c2ccccc2c1=O,103,108,0,-8
COc1ccc(Cl)cc1-n1c(C)cc(C(=O)OCC#N)c1C,107,106,-7,-40
CCN(CC)CCNc1nc(-c2ccco2)c2c(c1C#N)CC(C)(C)OC2,99,106,20,0
O=C(CSc1nc(-c2ccco2)nc2cc(=O)[nH]n12)Nc1ccccc1,99,102,9,-11
Cc1ccc(Sc2c(C)n[nH]c2C)cc1,102,104,-20,1
O=C(COc1ccccc1)Nc1nncs1,101,103,-2,-23
CC(=O)OC[C@H]1O[C@@H](n2ncc(=O)[nH]c2=O)[C@H](OC(C)=O)C1OC(C)=O (stereo not given in full),101,103,4,6
O=C1CS/C(=N/C(=O)NC2CCCCC2)N1,104,107,0,-11
O=C(COC(=O)c1ccc(O)cc1)Nc1cccc(I)c1,102,94,-6,-12
S=c1n(CN2CCOCC2)c2ccccc2n1-c1ccccc1,72*,80*,99*,-7
CCCn1c(SCc2nc(-c3ccc(OCC)cc3)no2)nnc1-c1ccc(Cl)cc1,104,103,-11,-13
Cc1cc(NS(=O)(=O)c2ccc(NS(C)(=O)=O)cc2)no1,105,107,-5,2
CC(=O)OCc1cc(=O)n2ccsc2n1,101,104,84,-12
COc1ccc(/C=C2\SC(N)=NC2=O)cc1OC,100,107,13,-7
CN(CC(=O)N1CC=C(c2ccccc2)CC1)S(=O)(=O)c1ccc2nc(-c3ccccc3)[nH]c2c1,99,103,8,-12
Cc1ccc(C2CC(c3ccc(F)cc3)n3ncnc3N2C(=O)C2CC2)cc1 (stereo not given),102,99,1,-28
CC1CCN(S(=O)(=O)c2ccc3[nH]c(=O)[nH]c3c2)CC1,101,102,-3,-15
COc1ccccc1NC(=O)c1cc2ccccc2c(C=Nc2ccc(NC(C)=O)cc2)c1O,111,129,-12,-2

# Record cards, as listed above:
# Entry for N/C(COc1cc(Cl)cc(Cl)c1)=N\O → Polio RdRp inh = 100; Polio RdRp inh intensity = 99; Mtb MbtI inh = 71; Mtb MenB inh = 26
# Entry for Cn1c(NC(=O)c2ccccc2NC(=O)c2ccccc2)nc2ccccc21 → Polio RdRp inh = 102; Polio RdRp inh intensity = 97; Mtb MbtI inh = 2; Mtb MenB inh = -6
# Entry for COc1ccc(N2CCN(C(=O)c3ccccc3OC)CC2)cc1 → Polio RdRp inh = 104; Polio RdRp inh intensity = 103; Mtb MbtI inh = -6; Mtb MenB inh = -16

# Other records:
SMILES,Polio RdRp inh,Polio RdRp inh intensity,Mtb MbtI inh,Mtb MenB inh
OCc1nc2ccccc2n1Cc1ccc(Cl)cc1,102,89,-11,-10
O=C(CSc1nnc(COc2cccc3cccnc23)o1)N1c2ccccc2CCc2ccccc21,102,102,-7,15
Cc1ccn2cc(C(=O)OC(C)c3nnc(-c4cccs4)o3)nc2c1 (stereo not given),100,106,12,10
CCOc1ccccc1/C=N\N1CCN(c2ccccc2)CC1,104,103,-2,-23
COc1ccc2c(c1OC)C(=O)N(c1cccc(Cl)c1)C2=O,103,102,111,-4
Cc1nnc(NCCc2ccccc2)[nH]c1=O,105,105,.,-20
CCOC(=O)c1c(N)n(C(C)CC)c2nc3ccccc3nc12 (stereo not given),106,107,108,-13
Cc1c(C)c(C)c(C(=O)c2ccccc2C(=O)NCc2cccnc2)c(C)c1C,101,106,-9,-17
O=C(CCCN1C(=O)c2cccnc2Oc2ccc(Cl)cc21)N1CCCCC1,100,104,-10,-5
CCCCNC(=O)c1nn(-c2ccc(OC)cc2)c(=O)c2ccccc12,99,101,12,-36
CCCc1n[nH]c(=O)c2c1nnn2Cc1ccccc1F,106,100,-10,-3
FC(F)Oc1ccc(/C=N/n2cnnc2)c(OC(F)F)c1,101,97,16,-7
Cc1cc(C)n(-c2nc3ccccc3[nH]c2=O)n1,169,175,-109,4
Cc1ccc(OCCSc2ncnc3ccccc23)cc1,97,92,.,-33
O=C(NCC1(N2CCCCC2)CCCCC1)c1ccc(N2CCCC2=O)cc1,.,.,-12,-1
CC12CCC(C/C1=N\Nc1nc(O)c(C3=c4ccccc4=NC3=O)s1)C2(C)C (stereo not given),.,.,1,-33
CC(C)C(Sc1ccc2c(c1)OCCO2)C(=O)NC(N)=O (stereo not given),102,100,7,10
O=C(/C=C/c1ccc2c(c1)OCCO2)NCc1ccco1,119,127,-1,-6
Clc1cc(N2CCOCC2)ncn1,102,101,11,7
CN(C)S(=O)(=O)c1ccc2c(c1)oc(=O)c1cc(S(=O)(=O)N(C)C)ccc12,102,95,11,-13
COC(=O)C1(c2ccccc2)NC(c2cccs2)C2C(=O)N(C)C(=O)C21 (stereo not given),100,103,-2,23
CN(C)c1ccc(C(=O)NCc2cc(Cl)c3c(c2)OCCCO3)cc1,100,100,51,5
Cc1ccc2[nH]c(=O)c(CNc3ccc(N4CCN(C)CC4)cc3)cc2c1,103,103,-8,12
CCn1nnc2cc(C(=O)N(C)Cc3ccc(-c4ccc(Cl)cc4)o3)ccc21,104,101,17,-20
N#CCCNS(=O)(=O)c1ccc(C(=O)NCC23CC4CC(CC(C4)C2)C3)cc1,105,111,-19,-28
# Next section.
SMILES,Polio RdRp inh,Polio RdRp inh intensity,Mtb MbtI inh,Mtb MenB inh
CCOc1ncccc1C(=O)Nc1ccc2c(c1)OCCO2,102,96,-12,-7
COC(=O)CN(n1cnnc1)S(=O)(=O)c1ccc(C)cc1,101,101,-5,-16
CC1=C(C)CC(C(=O)N2CCN(Cc3ccccc3)CC2)C(C(=O)O)C1 (stereo not given),103,95,.,-18
CC(C)c1cc2cc3ccc(=O)oc3cc2o1,101,108,3,-1
CCSc1nc2sc3c(c2c(=O)n1CCc1ccccc1)CCC3,103,101,11,4
Cc1cccc(C(=O)NC(=NCCc2cnc[nH]2)Nc2nc(C)cc(C)n2)c1,100,100,-12,-1
COc1cccc(Cl)c1NC(=O)N1CCN(c2cc(C)nc3ccccc23)CC1,97,105,-7,-5
O=C(CCCN1CCOCC1)c1ccc2c(c1)OCCO2,101,105,-17,-9
CC(=O)N(C1=NCCCS1)c1ccc(C)cc1,100,101,-13,-20
O=c1oc(-c2cccc(Cl)c2)nc2c1cnn2-c1ccccc1,104,110,.,1
Cc1ccnc(SCC(=O)NC(c2ccccc2)c2ccccc2)n1,103,106,-4,.
O=C(c1ccc(N2CCOCC2)nc1)N1CCCCCC1,106,110,-17,-11
OC(c1ccccc1)(c1ccccc1)C1CCCN1Cc1ccccc1 (stereo not given),105,105,.,-16
CS(=O)(=O)c1cccc(S(=O)(=O)NCc2ccco2)c1,.,.,-6,9
Cc1c(C(=O)NCCc2ccccc2)oc2ccccc12,101,102,-8,16
CN(C)CCN(Cc1ccccc1)Cc1ccc(O)cc1,99,103,-7,-4
COc1ccc(C(=O)CSc2nccn2C)cc1,98,107,10,8
CCCCN1Cc2c(n(CC(=O)OCC)c3cc(-c4ccccc4)nn3c2=O)C1=O,103,98,-9,-22
COc1ccc(N=C2CCCN2CC(N)=O)cc1,102,101,3,-16
CCOc1ccc(CCNC(=O)Cc2ncn[nH]2)cc1OCC,103,109,.,-11
O=C(O)CN1CC(=O)Oc2ccccc21,102,110,19,-10
CCCn1c2ccccc2c2cnn(CC(=O)N3CCCc4ccccc43)c(=O)c21,104,102,75,-30
O=C(CSc1ccccc1)OCc1nnc(C2COc3ccccc3O2)o1 (stereo not given),103,112,-14,-36
O=C(N/N=C/c1ccc(O)c(O)c1O)c1cccc(S(=O)(=O)Nc2ccccc2Cl)c1,103,94,55*,-2
Cc1ccc(CNC(=O)c2ccc3c(c2)NC(=O)CS3)n1C,106,113,-10,-8

# Brought forward from above: four compounds; new compounds follow.
SMILES,Polio RdRp inh,Polio RdRp inh intensity,Mtb MbtI inh,Mtb MenB inh
CCCn1c2ccccc2c2cnn(CC(=O)N3CCCc4ccccc43)c(=O)c21,104,102,75,-30
O=C(CSc1ccccc1)OCc1nnc(C2COc3ccccc3O2)o1 (stereo not given),103,112,-14,-36
O=C(N/N=C/c1ccc(O)c(O)c1O)c1cccc(S(=O)(=O)Nc2ccccc2Cl)c1,103,94,55*,-2
Cc1ccc(CNC(=O)c2ccc3c(c2)NC(=O)CS3)n1C,106,113,-10,-8
N#CCSc1nc2ccccc2c(=O)n1CCCC(=O)NCc1ccco1,101,102,1,10
CCCN(CCC)C1=CC(=O)C(C(C)(C)C)=CC1=O,103,92,-1,-90
O=c1[nH]c(SCc2ccc(C(F)(F)F)cc2)nc2c1cnn2-c1ccccc1,104,106,1,-7
C/C(=N\NC(N)=S)c1cccnc1,101,95,12,-25
COC(=O)c1c(N)sc2c1C(C(=O)OC)CC2 (stereo not given),103,105,.,7
N#Cc1oc2ccccc2c1N,105,105,-85,-9
Cn1c(=O)c2c(-c3ccccc3Br)n(CC(N)=O)cc2n(C)c1=O,104,101,140,-5
Nc1ccc(I)cc1C(=O)O,98,104,.,5
O=S(=O)(NC1=NCCCCC1)c1ccc(F)cc1,99,99,-11,-27
CC(C)NC(=S)NC(=O)c1cccnc1,100,103,.,3
COc1ccc(N2CCN(Cc3nnnn3C3CCCCC3)CC2)cc1,102,106,-12,2
Cc1n[nH]c(C)c1Sc1nccc(-c2cccnc2)n1,101,92,-4,-16
O=C1NCC(COc2ccc3ccccc3c2)O1 (stereo not given),100,99,6,-28
Cc1sc(NC(=O)C2CCCCC2)c(C(N)=O)c1C,100,101,13,-24
O=c1nc(-c2ccccc2)c2cc(Cl)ccc2[nH]1,103,108,-7,-15
CC(=O)OC1COC(Oc2ccc(C(C)(C)C)cc2)C(OC(C)=O)C1OC(C)=O (stereo not given),103,106,-2,-18
Cc1c(C)c(C)c(C#CCOC2CCCCO2)c(C)c1C (stereo not given),104,109,-10,1
COc1ccc(NC2CCN(C3CC(=O)N(c4ccc(Cl)cc4)C3=O)CC2)cc1 (stereo not given),102,100,-5,2
NS(=O)(=O)c1ccc(NC(=O)/C=C/C(=O)O)cc1,102,101,1,4
O=C(O)CCN1C(=O)CSc2ccccc21,105,107,103,-9
Cc1cc(OC(C)C(=O)N2CCN(Cc3ccccc3)CC2)nc(C(C)C)n1 (stereo not given),108,107,-15,4

# Part of the list above in a different format.
N#CCSc1nc2ccccc2c(=O)n1CCCC(=O)NCc1ccco1
- Polio RdRp inh: 101
- Polio RdRp inh intensity: 102
- Mtb MbtI inh: 1
- Mtb MenB inh: 10

CCCN(CCC)C1=CC(=O)C(C(C)(C)C)=CC1=O
- Polio RdRp inh: 103
- Polio RdRp inh intensity: 92
- Mtb MbtI inh: -1
- Mtb MenB inh: -90
